Screening results from PubChem BioAssay.
LANA-nucl inh: LANA-nucleosome interaction inhibition; FITC-LANA1-23 / chicken nucleosome fluorescence polarization; stronger effect = lower value; z-score (test concentration not listed); actives 0.3% (n = 51,000);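 active means both repeat wells score below -2 in polarization z-score versus plate sample wells, excluding overly bright wells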;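 further: 100 nL library stock added to about 30 µL; numbers are from one replicate; some results filed as inactive read as strong as hits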
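Assay system: purified chicken nucleosomes with FITC-labelled LANA N-terminal peptide (1-23) / Probe or stimulus: 50 nM FITC-LANA1-23 probe / Compound dosing: pin-transferred compound, 100 nL / Times: compound with peptide–nucleosome mix 10–45 min at room temperature / Technique: fluorescence polarization, 480 nm excitation, 535 nm parallel and perpendicular emission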
BasE inh: inhibitors of Acinetobacter baumannii siderophore enzyme BasE; purified BasE, fluorescence polarization binding displacement; inhibition, % (test concentration not listed); actives 0.1% (n = 84,000); AID 485350;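 active means both replicates above 25% with normal brightness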;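 further: 0% = negative plate control signal and 100% = positive plate control signal; stock transfer was 100 nL into about 30 µL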
Starred values were filed as active, the others as inactive; . = not tested or not shown; & = joins results of further samples. A portion of the library; count on the stated rates, not on these rows.

entry	Compound	LANA-nucl inh	BasE inh
1	CCc1nn(CC(=O)NC2CCN(Cc3ccccc3)CC2)c(=O)c2cc3sccc3n12	-0.57	0.9
2	CCn1c(=O)c2c3c(sc2n2c(=S)[nH]nc12)CCCC3	0.39	-1.5
3	NS(=O)(=O)c1ccc(CCNCc2cccs2)cc1	-0.1	-0.7
4	O=C(NC1CCCCC1)C(c1ccco1)N(Cc1cccs1)C(=O)C(F)(F)F (configuration not stated)	-0.47	0.7
5	O=C(Nc1ccc(F)cc1F)c1ccccc1C(F)(F)F	.	0.4
6	O=C(CCCc1nc2ccccc2s1)OCc1nnc(-c2cccs2)o1	.	-1.2
7	Cc1ccc(Cn2c(=O)c3ccccc3n3c(SCc4nc5ccc(Cl)cc5n4CCO)nnc23)cc1	.	-1.4
8	Cc1c(C(=O)NCCCN2CCOCC2)cc(C(C)(C)C)n1-c1ccccc1	1.6	-1.0
9	CN1C(=O)c2ccccc2Sc2ccc(NC(=O)NCc3ccco3)cc21	-0.38	-0.7
10	Cc1ccc(OCCNC(=O)Cc2ccsc2)cc1	.	-3.0
11	CCSc1nn2c(=O)c(C(C)(C)C)nnc2s1	.	-1.1
12	COc1ccc(-c2noc(COC(=O)CSc3nc4ccccc4o3)n2)c(OC)c1	.	0.1
13	Cc1ccc(SC(C)C(=O)Nc2ncn[nH]2)cc1 (configuration not stated)	-1.6	1.3
14	CC1=NN(c2ccccc2)C(=O)C1C(=O)c1ccc(F)cc1 (configuration not stated)	-0.063	0.8
15	COc1cccc(-c2nc(SCN3C(=O)c4ccccc4C3=O)[nH]c(=O)c2C#N)c1	-0.11	5.5
16	O=C(N/N=C/c1cccc(Br)c1)c1ccccc1O	.	0.1
17	Cc1c(C(=S)Nc2ccccc2)sc2ccccc12	.	2.2
18	C=CCn1c(=O)/c(=C/c2ccc3c(c2)OCO3)s/c1=C(/C#N)C(N)=O	.	2.2
19	COc1ccc(OCCCC(=O)N2CCN(S(=O)(=O)c3ccccc3C(F)(F)F)CC2)cc1	.	0.1
20	CC(=O)ONC(=Nc1ccccc1C)c1nonc1N	-0.054	0.7
21	COC(=O)C1=C(N)Oc2cc(C)[nH]c(=O)c2C1c1ccccc1OC (configuration not stated)	-0.77	43*
22	CN(C)C(=S)SCC(=O)Nc1cccnc1Cl	.	3.8
23	Cc1ccc2nc(CC#N)[nH]c2c1	1.7	-1.1
24	CCC(OC(=O)CC1Sc2ccccc2NC1=O)C(=O)NC1CCCC1 (configuration not stated)	2.3	-3.5
25	Clc1cccc(Cl)c1NC1=NCCN1	-0.47&0.3&-0.5&0.18&-0.93	-0.7&0.4
26	C=C(C)Cn1nc(C)c(-c2cc(C(=O)O)[nH]n2)c1C	-0.083	-0.2
27	O=C1NC(Cc2ccc(O)cc2)C(=O)N1C12CC3CC(CC(C3)C1)C2 (configuration not stated)	0.23	0.7
28	CC1CCN(c2ncccc2C(=O)NC2CCCCC2)CC1	0.69	-2.2
29	COc1ccc(C(=O)Nc2nccs2)cc1S(=O)(=O)N(C)Cc1ccccc1	.	-0.6
30	O=C(O)c1ccc(N=NN2CCCCC2)cc1	-0.053	0.8
31	O=c1[nH][nH]c(=O)n1CCCc1cc2cccc3ccc4cccc1c4c32	.	-0.6
32	O=C1C2CC=CCC2C(=O)N1CNc1ccccc1 (configuration not stated)	.	0.2
33	CCCc1[nH]n(-c2nc3ccccc3s2)c(=O)c1C(C)=Nc1ccc(C(=O)OCC)cc1	.	2.0
34	Cc1c(C(=O)NC(C)C)oc2ccccc12	0.71	2.1
35	COc1cc2cc(C)nc(Cc3cccc4ccccc34)c2cc1OC	.	0.2
36	NS(=O)(=O)c1ccc(CCN2C(=O)CSC2=S)cc1	0.2	0.7
37	COc1cc(=O)n(C)c2c(OCC(O)C(C)(C)O)cccc12 (configuration not stated)	-0.66&0.48	-1.7&-1.2
38	COCC(C)NC(=S)NC1CC(C)(C)NC(C)(C)C1 (configuration not stated)	.	0.8
39	COc1ccc(N(C(C)=O)S(=O)(=O)c2cc(OC)ccc2OC)cc1	-0.06	0.7
40	O=C(NCCc1c[nH]c2ccccc12)c1cc(CN2CCCC2)on1	2	-2.8
41	CCOc1ccc(NC(=O)CN(C)C(C)c2nnc(-c3cccs3)o2)cc1OCC (configuration not stated)	.	-0.1
42	N#CC1(C#N)C(c2ccccc2Cl)C(C(=O)C2CC2)N2C=CC=CC21 (configuration not stated)	.	-0.9
43	Cc1csc(/N=C/N(C)C)n1	.	0.7
44	O=C(c1ccccc1O)N1CCN(c2ccccc2)CC1	-0.96	3.3
45	COC(=O)c1sc(N)c(C(=O)OC)c1COC(=O)C1CC(=O)N(Cc2ccco2)C1 (configuration not stated)	.	0.3
46	Cc1cccc(-c2nnc(SCC3CNC(=O)O3)n2-c2ccc(Cl)cc2)c1 (configuration not stated)	.	0.8
47	O=C(OCC(=O)N1CCCC1)c1cc(-c2ccco2)nc2ccccc12	.	7.4
48	O=C1OC(C(=O)NCCc2ccccc2)Cc2ccccc21 (configuration not stated)	-0.23	-1.9
49	N#CCc1ccccc1C(=O)O	.	4.1
50	CC1=C(C(=O)Nc2ccc(C)cc2C)C2(CCN(S(C)(=O)=O)CC2)OC1=O	.	0.2

Continued:
entry	Compound	LANA-nucl inh	BasE inh
51	COCCn1c(SCC(N)=O)nc2sc3c(c2c1=O)CCCC3	.	1.5
52	COc1cc(-c2nnc(SCC(=O)c3ccco3)n2C)cc(OC)c1OC	.	-0.8
53	CCn1c2ccccc2c2cc(CNCCO)ccc21	0.1	-3.9
54	CC1C(=O)CCNC1c1ccccc1 (configuration not stated)	1.2	-1.5
55	O=C(OCN1C(=O)c2ccccc2C1=O)c1cccc(OC(F)F)c1	.	-0.3
56	O=C(Nc1ccccc1)Nc1ccc2nnsc2c1	.	5.3
57	CC(C)Cn1cnc2c1c(=O)n(CC(=O)NCC(F)(F)F)c(=O)n2Cc1ccccc1	.	1.3
58	O=C1CCC(C(=O)OCc2ccc(Br)cc2)=NN1	.	-1.0
59	CCOc1cc(C)c(Cl)cc1S(=O)(=O)N1CCN(C)CC1	-0.3	0.2
60	Cc1c(C)c2c(c(C)c1O)CCC(C)(CCCC(C)CCCC(C)CCCC(C)C)O2 (configuration not stated)	0.28&0.012	0.5
61	CCCN1CCCc2cc(CN)ccc21	-0.49	6.4
62	COC(=O)c1cc2sc(Cl)cc2n1Cc1nc(-c2ccc(OC)c(OC)c2)oc1C	1	-1.2
63	CCC1Sc2ccc(S(=O)(=O)CCC(=O)N3CCCc4ccccc43)cc2NC1=O (configuration not stated)	-2	0.5
64	CC1(C)C(c2ccco2)=[N+]([O-])C(C)(C)N1O	-0.48	-0.1
65	Cn1nc(-c2ccccc2F)c2cc(C(=O)Nc3ccc(S(N)(=O)=O)cc3)sc21	0.29	0.1
66	C=CCn1c2ccc(Br)cc2c2nc3ccccc3nc21	.	0.6
67	Cc1cc(C)nc(N/N=C/c2c(O)n(C)c(=O)n(C)c2=O)n1	.	-0.6
68	CC(Oc1ccccc1)C(=O)Nc1ccc(-c2nnc(-c3ccccc3)o2)cc1 (configuration not stated)	0.22	1.0
69	Cc1cccc(NC(=O)/C=N/OC(=O)Nc2ccccc2)c1	0.52	-1.4
70	Cc1cc(C)nc(NNC(=O)NC2CCCCC2)n1	.	-1.3
71	Cc1c(Cl)ccc2c(=O)c(C(=O)O)c[nH]c12	0.56	-13
72	Cc1ccc(/C=N/n2cnc3sc4c(c3c2=O)CCCC4)o1	.	4.2
73	CCOC(=O)CC1=CSC(NC)N1c1c(C)cc(C)cc1C (configuration not stated)	.	0.6
74	CC(C)C(=O)Nc1nc(NC(=O)C(C)C)nc(-c2ccccc2C(F)(F)F)n1	-0.05	2.8
75	O=C(O)CCC(=O)OC[C@@H](NC(=O)C(Cl)Cl)[C@H](O)c1ccc([N+](=O)[O-])cc1	-0.1&-0.048	-1.6
76	COc1ccc(-c2[nH]nc(SC)c2C#N)cc1	.	-2.6
77	Cc1noc(C)c1COc1ccc(C(=O)Nc2ccc(F)c(Cl)c2)cc1	.	0.2
78	COC(=O)/C=C/c1ccc(OC(=O)c2ccncc2)cc1	.	1.1
79	CCN(CC)CCCNc1cc(C)c2ccc(OC)cc2n1	.	-8.9
80	O=C(NCCN=C1NS(=O)(=O)c2ccccc21)c1ccc(F)cc1	0.24	-1.7
81	CCOC(=O)c1oc2ccc(S(=O)(=O)Nc3cc4c(cc3C)n(C)c(=O)c(=O)n4C)cc2c1C	-0.61	0.9
82	CCc1ccc(NC(=O)Cn2cnc3c(cnn3C)c2=O)cc1	-1	0.4
83	N#CC(C#N)=CNc1ccncc1	.	2.4
84	CCOC(=O)c1cnc2ccc(C(=O)OC)cc2c1NCCCO	0.2	-0.6
85	CC(NC(=O)C12CC3CC(CC(C3)C1)C2)C(c1ccccc1)N1CCN(C)CC1 (configuration not stated)	.	-1.1
86	CCSc1nc2ccccc2n1CCOc1ccccc1	-0.005	-2.1
87	Cc1ccc(C)[n+](C)c1	-0.16	-5.8
88	O=C(c1cn(Cc2ccccc2)nc1-c1ccccc1)N1CCN(CCO)CC1	.	0.5
89	CC(=O)Nc1sc2c(c1CN1CCCC1)CCCC2	.	-2.8
90	COc1ccc(NC(=O)CC(C)NCc2ccc(CN3CCCC3)cc2)cc1 (configuration not stated)	.	-0.9
91	COc1ccccc1C(C)NCC(=O)Nc1ccccc1C(=O)NC1CC1 (configuration not stated)	.	1.2
92	N=c1n(CCO)c2ccccc2n1Cc1ccc(Cl)cc1	.	-4.5
93	CC(Nc1ncnc2c1oc1ccccc12)C1CC2CCC1C2 (configuration not stated)	.	2.6
94	Clc1ncc(C=NCc2ccccc2)s1	2	.
95	O=C1CN(c2ccccc2)C(=S)N1C(=O)c1ccccc1	0.35	0.8
96	Cn1nnnc1SCCNCc1ccccn1	-0.16	1.8
97	CCOC(=O)c1c(NC(=O)COC(=O)/C=C/c2ccco2)sc(CC)c1C	.	2.1
98	CCc1ccc(OCc2ccc(C(=O)Nc3nc4ccccc4n3CCN3CCCCC3)o2)cc1	0.22	-0.4
99	CCOC(=O)c1cnc2c(C(F)(F)F)cccc2c1N1CCN(C)CC1	.	-3.2
100	COc1ccccc1N(CC(=O)Nc1cc(C)on1)S(=O)(=O)c1ccc(Cl)cc1	.	-0.3

New compounds follow.
entry	Compound	LANA-nucl inh	BasE inh
101	CCOC(=O)c1c(C)c(C#N)c(/N=C/N(C)C)n1-c1ccc(Cl)cc1Cl	.	0.4
102	OCCNc1nc(-c2cccnc2)nc2ccccc12	-0.73	0.1
103	CCO/C=N/c1oc(-c2ccccc2)nc1C#N	-1.1	1.4
104	CCc1ccc(NS(=O)(=O)c2ccc3[nH]cc(C(=O)N4CCCCC4)c(=O)c3c2)cc1	1.6	-7.6
105	Cc1cc(NN)nc(-c2ccccc2O)n1	-0.13	6.8
106	O=C(N/N=C/c1cccc(S(=O)(=O)N2CCOCC2)c1)C1=COCCO1	.	-1.1
107	CCO/C=N/S(=O)(=O)c1ccccc1	.	1.9
108	Cn1c(C2CC2)n[nH]c1=S	-0.8	-1.7
109	O=C1OC(c2ccccc2)=N/C1=C\c1ccccc1C(F)(F)F	.	1.0
110	N#Cc1ccc(COC(=O)c2cc3ccccc3c(=O)[nH]2)cc1	.	-0.7
111	CC1CCCCC1NC(=O)COC(=O)/C=C/c1ccc2c(c1)OCO2 (configuration not stated)	.	0.3
112	O=C(CSc1nnc(-c2ccncc2)o1)NC1C2CC3CC(C2)CC1C3 (configuration not stated)	-1.3	0.6
113	CC12CN3CC(C)(CN(C1)C3c1ccc(O)cc1O)C2=O (configuration not stated)	.	-0.8
114	O=C(CSc1n[nH]c(=O)n1Cc1ccccc1)NC(=O)Cc1ccccc1	.	-2.1
115	N#C/C(=C/Nc1ccccc1)c1ccsc1	-0.61	.
116	Cc1cc(C)cc(NC(=O)c2ocnc2C)c1	1.6	-1.1
117	Nc1nc(COC(=O)c2cc(S(=O)(=O)NC3CC3)ccc2Br)nc(Nc2ccccc2)n1	.	0.7
118	C=CCC(CC=C)(C(N)=O)c1ccccc1	-0.33	2.9
119	COc1ccc(Oc2c(F)c(F)nc(F)c2Cl)cc1	.	1.3
120	c1ccc(NN=C2CCCCCCC2)cc1	-0.67	2.9

Profiles from above. Order of screens: LANA-nucl inh | BasE inh
CC12CN3CC(C)(CN(C1)C3c1ccc(O)cc1O)C2=O (configuration not stated) reads . | -0.8
Nc1nc(COC(=O)c2cc(S(=O)(=O)NC3CC3)ccc2Br)nc(Nc2ccccc2)n1 reads . | 0.7
c1ccc(NN=C2CCCCCCC2)cc1 reads -0.67 | 2.9
CC1CCCCC1NC(=O)COC(=O)/C=C/c1ccc2c(c1)OCO2 (configuration not stated) reads . | 0.3
O=C(CSc1n[nH]c(=O)n1Cc1ccccc1)NC(=O)Cc1ccccc1 reads . | -2.1

2 entries from above, as labelled records:
#87 Cc1ccc(C)[n+](C)c1
  LANA-nucl inh = -0.16; BasE inh = -5.8
#88 O=C(c1cn(Cc2ccccc2)nc1-c1ccccc1)N1CCN(CCO)CC1
  LANA-nucl inh = .; BasE inh = 0.5

Going on with the list:
entry	Compound	LANA-nucl inh	BasE inh
121	CCOC(=O)c1cc(-c2ccc(S(=O)(=O)NCC3CCCN3CC)s2)on1 (configuration not stated)	2.8	-3.4
122	COc1ccc2c(c1)nc(NCCCO)n2Cc1ccccc1	.	1.4
123	CC(C)(C)C(=O)NC1CCNCC1	-1.5	-0.6
124	CCCCn1c(N)c(C(=S)NC(=O)CC(C)C)c(=O)n(C)c1=O	.	3.4
125	CC(Sc1n[nH]c(-c2cccs2)n1)C(=O)Nc1ccc(C(N)=O)cc1 (configuration not stated)	.	-1.3
